Vaccinia mCherry = vaccinia inhibition (mCherry reporter). Vaccinia virus mCherry reporter infection, fluorescence; about a quarter of the inactives have no number. Potency, µM (titrated, usually from 36.5 µM), without a hit: top-dose activity change, negative = inhibition, hits mostly inhibitors. hit rate 0.63% among 310,000. AID 720579; active = well fitted inhibition curve with a large enough effect; inconclusive = small, poorly fitted or top-dose-only effect; inactive = no such curve, though single readings can be large or run the other way; tested in A549 cells; further: nearly all actives have a fitted effect of over 35% in size; inactives centre near -10
Vaccinia Venus = inhibitors of vaccinia virus (Venus reporter); Vaccinia virus Venus reporter expression, fluorescence; Potency, µM (titrated, usually from 36.5 µM), without a hit: at the highest dose activity change, negative = inhibition, actives largely listed as inhibitors; hit rate 0.46% among 330,000; AID 720580; active means well fitted inhibition curve with a large enough effect; inconclusive means small, poorly fitted or top-dose-only effect; inactive means no such curve, though single readings can be large or run the other way; tested in A549 cells; further: nearly all actives have a fitted effect of over 30% in size; inactives centre near -10
* hit, by the source's call; i = inactive; ? = inconclusive; nt = no result given; & = joins results of further samples; [ ] = another dose, or the depositor's remark. On the % scale 0 is the no-effect control and ±100 the full control effect; potency means the concentration at half of the fitted maximal effect.

mol	Vaccinia Venus	Vaccinia mCherry
CCOC(=O)c1c(C)nc2sc3c(=O)n(-c4ccc(C(C)=O)cc4)nnc3c2c1-c1ccc(OC)cc1	-7%	-24%
O=C(O)c1ccc(CS(=O)(=O)Cc2ccccc2F)o1	-9%	-11%
O=C(O)c1ccc(NC(=S)NC(=O)C(c2ccccc2)c2ccccc2)cc1	-11%	-10%
CCN1C(=O)[C@@H]2[C@@H](c3ccc(-c4ccccc4)cc3)N3CCC[C@@]3(C(=O)OC)[C@@H]2C1=O	-19%	?
COc1ccc(N(CCC(=O)Nc2ccccc2F)S(=O)(=O)c2ccc(C)cc2C)cc1	-20%	-5%
CN(c1cccc(NC(=O)c2ccc(Cl)c(S(=O)(=O)N3CCOCC3)c2)c1)S(C)(=O)=O	-14%	-23%
CCN(CC)C(=O)c1sc(NC(=S)N2CCN(C(=O)C3CCCO3)CC2)c(C(=O)OC)c1C (centres undefined)	-11%	-16%
O=C(CC[C@H]1O[C@@H](n2cnc3c(NC(=O)c4ccccc4)ncnc32)[C@H](O)[C@@H]1O)NCc1ccccn1	7%	i
N#C/C(=C\c1c(Oc2ccc(F)cc2)nc2ccccn2c1=O)c1nc2ccccc2s1	3%	-10%
CC(=O)CSc1ncnc2c1oc1ccccc12	-12%	nt
COc1ccc(-c2nc(CN3C(=O)CN=C(c4ccccc4)c4ccccc43)c(C)o2)cc1	-10%	-19%
CCOC(=O)C1CCN(C(=O)C2CCN(S(=O)(=O)N3CCCC3)CC2)CC1	-9%	i
CCN(CC)c1nc2nonc2nc1N(CC)CC	-10%	-6%
COC(=O)c1ccccc1NC(=O)CCCn1c(C)c2cnn(-c3ccccc3)c(=O)c2c1C	-3%	-8%
CCOC(=O)C(NC(=O)Nc1ccc(Cl)cn1)(Oc1ccccc1)C(F)(F)F (centres undefined)	-12%	-9%
COc1ccc(OC)c(NC(=O)C2CCN(S(=O)(=O)c3c(C)noc3/C=C/c3ccc(C)cc3)CC2)c1	-22%	-28%
O=S(=O)(c1cccs1)N1CN(Cc2cccs2)c2nc3ccccc3nc21	-7%	nt
CCC1(C)OC(=O)NN(c2ccc(C)cc2)C1(C)O (centres undefined)	0%	i
Cc1ccc(S(=O)(=O)Nc2ccc(Cl)cn2)cc1	3%	-13%
Nc1cccc(/C=C/c2ccncc2)c1	-17%	i
O=C(COc1ccc(S(=O)(=O)N2CCCC2)cc1)N1CCCC1	4%	29%
O=c1[nH]c(=S)[nH]c2nc(-c3cccs3)cc(C(F)(F)F)c12	?	?
Cc1cccc(OCCn2cnc(Cl)c2Cl)c1	-5%	4%
COc1ccc2sc(N(CCCN(C)C)C(=O)c3ccc(S(=O)(=O)N4CCCc5ccccc54)cc3)nc2c1	?	-25%
COc1ccc(N2CCN(C(CNC(=O)c3ccc(C)cc3)c3ccc4c(c3)OCO4)CC2)cc1 (centres undefined)	-24%	-14%

3 compounds from above, arranged by count of non-hydrogen atoms, low to high.
mol	Vaccinia Venus	Vaccinia mCherry
CCC1(C)OC(=O)NN(c2ccc(C)cc2)C1(C)O (centres undefined)	0%	i
O=c1[nH]c(=S)[nH]c2nc(-c3cccs3)cc(C(F)(F)F)c12	?	?
CCOC(=O)c1c(C)nc2sc3c(=O)n(-c4ccc(C(C)=O)cc4)nnc3c2c1-c1ccc(OC)cc1	-7%	-24%

Laid out differently: results already given.
Each structure is followed by: Vaccinia Venus	Vaccinia mCherry
Nc1cccc(/C=C/c2ccncc2)c1
→ -17%	i
O=C(COc1ccc(S(=O)(=O)N2CCCC2)cc1)N1CCCC1
→ 4%	29%
O=c1[nH]c(=S)[nH]c2nc(-c3cccs3)cc(C(F)(F)F)c12
→ ?	?

New compounds follow
mol	Vaccinia Venus	Vaccinia mCherry
O=[N+]([O-])c1ccccc1CCc1cnc(Cl)s1	-12%	-9%
COCCCN1C(=O)CC(C(=O)OC)=C1C	-4%	5%
COc1cccc(CN2c3ccc(Br)cc3C(=O)CS2(=O)=O)c1	-25%&-29%	?
Clc1ccccc1Cn1cccc1C1=NC(Cc2ccccc2)CO1 (centres undefined)	1%	-6%
COn1c(C)c(C(C)=O)c2c3nonc3ccc21	-28%	nt
COc1ccc(C)cc1N(CC(=O)N/N=C/c1ccc2c(c1)OCO2)S(C)(=O)=O	-9%	-11%
C=C(C)c1cccc(C(C)(C)NC(=O)N2CCN(c3ccc(OC)cc3)CC2)c1	-16%	i
O=C(COC(=O)/C=C/c1ccco1)Nc1ccc(F)cc1Cl	-5%	-5%
COc1cc(/C=C(\C(=O)O)c2ccc(S(=O)(=O)N3CCCC3)s2)cc(OC)c1	-5%	-7%
Cc1ccc(C)c(S(=O)(=O)N2CCCC2CNC(=O)C(=O)NCc2ccco2)c1 (centres undefined)	-15%	i
CS(=O)(=O)c1ccc(C(=O)OCC(=O)NCc2cccs2)cc1[N+](=O)[O-]	-29%	?
O=[N+]([O-])c1ccc(-c2ccc(/C=N/Nc3nc(NCc4ccccc4)nc(N4CCOCC4)n3)o2)cc1	-23%	-3%
Cn1nc(-c2ccccc2)c(C#N)c1Sc1cccc(Cl)c1	-13%	i
CC(CNC(=O)C1CCN(C(=O)c2cc3sccc3n2C)CC1)c1ccccc1 (centres undefined)	-11%	-4%
CC1CCN(C(=O)CCCC(=O)O)CC1	2%	-8%
O=C1C2C3c4ccccc4C(c4ccccc43)C2C(=O)N1c1cccnc1 (centres undefined)	7%	-8%
CCn1cc(C(=O)N(C)Cc2ccccc2)c(=O)c2cc(S(=O)(=O)N3CCc4ccccc4C3)ccc21	-13%	-19%
Cc1cc(C)cc(NC(=O)CN(C)S(=O)(=O)c2cnc[nH]2)c1	-12%	nt
COCCN(C(=O)COC(=O)c1nc(Cl)ccc1Cl)c1c(N)n(Cc2ccccc2)c(=O)[nH]c1=O	-8%	i
O=[N+]([O-])c1ccccc1C=NNC(=S)NN=Cc1ccccc1[N+](=O)[O-]	-12%	?
C=C(C)c1cccc(C(C)(C)NC(=O)N2CCN(C)CC2)c1	-4%	?
O=C(Nc1ccc2c(c1)OCO2)c1cccn(Cc2cccc([N+](=O)[O-])c2)c1=O	-11%	-3%
O=S(=O)(NCCOCCNS(=O)(=O)c1ccccc1)c1ccccc1	-18%	-17%
COc1ccc(NC(=O)[C@@H](NC(=O)c2ccccc2)C(C)C)cc1S(=O)(=O)N1CCCCC1	-15%	i
Cc1ccc(Cn2c(C(=O)O)c(CNC3CCCCC3)c3ccc(C)cc32)cc1	-7%	-2%
Cc1ccc(NC(=O)c2ccc(-c3cccc(Cl)c3C)o2)cc1	-6%	-10%
O=C(O)c1ccc(N(Cc2ccccc2)S(=O)(=O)c2ccccc2)cc1	-3%	-17%
CC(=O)Nc1ccc(S(=O)(=O)Nc2ccccc2C(=O)N2CCCC2)cc1	-3%	-27%
Cc1c(C(=O)Nc2ccc(F)c(F)c2)oc2ccc(S(=O)(=O)N(C)C3CCCCC3)cc12	-29%	i
CC(C)(C)NC(=O)C(c1ccc(-c2ccccc2)cc1)N(C[C@H]1CC[C@@H]([C@@H]2CC[C@H](CO)O2)O1)C(=O)c1ccccc1F (some centres undefined)	-6%	i
CCC(C)c1ccccc1OCC(=O)Nc1ccc(S(=O)(=O)Nc2cc(C)on2)cc1 (centres undefined)	8%	5%
Cn1c(=O)c2c(SCc3cccnc3)nc(CC(C)(C)C)nc2n(C)c1=O	-5%	-1%
CCC(=O)c1ccc(OCC(=O)OCC(=O)NCC2CCCO2)cc1 (centres undefined)	-26%	-2%
O=C(CSc1ccc2ccccc2c1)NC1CCCc2ccccc21 (centres undefined)	-5%	-11%
COc1ccccc1/C=C/C(=O)/C=C/c1ccccc1O	-24%	?
NC(=O)C1(N2CCCCC2)CCN(C(=S)NCCc2ccccc2)CC1	-7%	i
O=C(NCc1ccco1)c1ccc(Br)c(S(=O)(=O)N2CCCCC2)c1	-23%	-9%
CCC(=O)Nc1ccc(C(=O)CSc2nnc(-c3ccccc3F)n2C2CC2)cc1	0%	i
CC(=O)CCc1c(C)c2cccc(C)c2[nH]c1=O	-11%	-6%
COc1ccc(CCNC(=O)c2ccc(NC3=NC4CS(=O)(=O)CC4S3)cc2)cc1OC (centres undefined)	3%[7.34 µM]	6%[7.34 µM]
COCc1nnc(NC(=O)c2cc3ccccc3o2)s1	4%	-14%
Cc1nccn1CCCNC(=O)CC1C(=O)NCCN1Cc1ccc(Cl)c(F)c1 (centres undefined)	-6%	i
Cc1ccccc1NC(=O)C(C#N)Cc1cccnc1 (centres undefined)	-10%	-16%
COc1ccc(C(=O)NCC(c2cccs2)S(=O)(=O)c2ccc(C)cc2)cc1 (centres undefined)	2%	i
CCN1/C(=C\C=C2\C(=O)N(c3ccccc3)C(=S)N2C)Sc2ccccc21	2%	-10%
Cc1cc(C)n2cc(CSc3nnc(N)s3)nc2n1	-5%	nt
COc1cccc(N(CC(=O)NC2CCCCC2)C(=O)CCCC(=O)Nc2ccccn2)c1	5%	-15%
COc1ccccc1C(=O)Nc1nc2ccccc2[nH]1	-10%	-12%
CCOC(=O)CN/C=C(\C#N)c1ccccc1	-3%	i
Cc1ccc(C)c(NC(=O)CCCCCCCCCCC2COCCO2)c1 (centres undefined)	-13%	-15%

(listing goes on)
mol	Vaccinia Venus	Vaccinia mCherry
CCCNC(=O)N1[C@H]2CC[C@@H]1C(C(=O)OC)=C(c1c(C)noc1C)C2	5%	-9%
Cc1nc(NC(=O)CCc2ccccc2)ccc1Br	-25%	-3%
COc1ccc2c(c1)c1c(c(=O)n(-c3cccc(Cl)c3)c(=O)n1CC(=O)NCC1CCCO1)n2C (centres undefined)	-7%	-4%
Cn1nc(C2CC2)cc1NC(=O)C1(C)CCN1C(=O)c1ccccc1CCc1ccccc1 (centres undefined)	-2%	-11%
COc1cc(C(=O)O/N=C(\N)c2cccc([N+](=O)[O-])c2)cc(OC)c1OC	-12%	-17%
Cc1ccccc1Cn1c(C)c(C(=O)N(C)Cc2ccc(F)cc2)sc1=O	1%	35%[activator]
O=C(NCc1ccccn1)c1ccc(Cl)c(S(=O)(=O)N2CCCCC2)c1	-4%	-12%
CC(=O)NC(CC(=O)N(Cc1ccccc1)c1ccc(C)cc1)c1ccccc1 (centres undefined)	-8%	i
Cc1sc(-c2ccccn2)nc1OC(=O)c1ccc(F)cc1F	-13%	-13%
O=c1ccc2c([nH]1)CCCCCCCCCC2	-17%	-24%
Cc1nc2c(-c3ccc(F)cc3)c(C)nn2c(C)c1CCC(=O)NCc1cccc(Cl)c1	-20%	-19%
O=C(COC(=O)COc1ccccc1)Nc1cccc([N+](=O)[O-])c1	-17%	-9%
COc1ccc(Cl)c(NC(=O)C/C(C)=N/NC(=O)CCc2ccccc2)c1	-19%	?
CCO[C@H]1OC(C(=O)Nc2ccccc2)=C[C@@H](c2csc3ccccc23)[C@@H]1CCCO	-26%	i
COC(=O)Cn1c(C(=O)N2CCCC2)cc2c1C[C@H]1CN(C(=O)c3ccccc3)[C@@](Cc3ccc(F)cc3)(C(=O)OC)[C@@H]21	-16%	-20%
COc1ccc(CCNC(=O)CCc2c(C)c3cc4c(C)coc4cc3oc2=O)cc1	-5%	-8%
c1ccc(CCCN2CCN(c3ccccc3)CC2)cc1	-4%	-6%
COc1ccccc1C(=O)OCc1cc(=O)n2nc(C3CC3)sc2n1	-9%[7.34 µM]	-8%[7.34 µM]
COc1ccc(OC)c(-c2nc(CN(C)C(C)c3ccncn3)c(C)o2)c1 (centres undefined)	0%	-1%
COC(=O)c1scc(C)c1N1C(=O)c2ccccc2C1=O	13%	4%
O=C(CN1CCN(Cc2ccccc2)CC1)c1ccccc1	-21%	nt
CCCCCn1cnc2c(=S)nc(N)[nH]c21	-5%	i
CCOC(=O)c1ccc(NC(=O)C2Cc3ccccc3C(=O)O2)cc1 (centres undefined)	-5%	-6%
C[C@H](CO)N1C[C@H](C)[C@@H](CN(C)S(=O)(=O)c2ccccc2)Oc2ccc(NC(=O)C3CCCCC3)cc2C1=O	-12%	-9%
Cc1nc2ccc(S(=O)(=O)c3ccc4nc(C)[nH]c4c3)cc2[nH]1	6%	nt
c1ccc2c(c1)ncn2-c1ccc(-c2ccnc(-c3ccncc3)n2)cc1	-8%	-5%
COc1cccc(-c2nc(OC(C)C)c3ccccc3n2)c1	-17%	-1%
O=CC1=C(c2ccccc2)Oc2ccccc2O1	-19%	?
COc1ccc(/C=N/n2cnn(Cc3ccccc3Cl)c2=S)cc1OC	-21%	-22%
N#C/C(C(=O)N1CCOCC1)=C1/SC(Cc2ccc(F)cc2)C(=O)N1c1ccccc1 (centres undefined)	-13%	-17%
O=C(Nc1ccccc1)C(Cc1ccccc1)NC(=O)C12CC3CC(CC(C3)C1)C2 (centres undefined)	3%	-6%
O=C(CCc1nc2cccnc2n1Cc1cccs1)Nc1cccc(Cl)c1	0%	-8%
COc1ccc(Cl)cc1NC(=S)N(Cc1ccc(C(=O)O)cc1)Cc1ccc(OC)c(OC)c1	-13%	i
Cc1ccccc1-n1c(SCC(=O)Nc2c(C)cccc2C)nc(O)cc1=O	-3%	-5%
CC(C)C(=O)NNC(=O)CN1CCN(c2nc(-c3ccccc3)cs2)CC1	-10%	?

From PubChem
